Compound activity: PubChem BioAssay, National Center for Advancing Translational Sciences (NCATS)
LT uptake inh: qHTS Assay for Anthrax Lethal Toxin Internalization. Cells, anthrax lethal toxin internalization, FRET ratio (460/530). Potency, µM (highest dose often 40 µM), for the others: top-dose activity change, negative = inhibition, actives largely listed as inhibitors. 70,000 tested, 0.67% active. AID 912, 2007; active = well fitted falling ratio curve with the 530 nm signal flat; inconclusive = other ratio curves, or a change in one channel alone; inactive = flat curves in the ratio and both channels; the % refers to the ratio; also: % is scaled to controls: 0 for no effect and ±100 for the full control effect; nearly all actives have a fitted effect of over 50% in size; tested in ME-180 cells; beta-lactamase reporter
Prx2 Sm inh: Schistosoma Mansoni Peroxiredoxins (Prx2). Schistosoma mansoni peroxiredoxin 2 (Prx2). 65,000 tested, 0.07% active. Potency, µM. S. mansoni Prx2 activity coupled to TGR/GSH (TGR is thioredoxin glutathione reductase), NADPH fluorescence loss, qHTS; some inactives read as strong as hits. AID 448, 2006; active means full or partial inhibition curve with a strong effect at the top dose; inconclusive means weaker partial or single-point curve; inactive means no accepted curve; also: series up to 57 µM; many of its hits are not listed in these tables
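Purified S. mansoni TGR and Prx2 in pH 7.4 phosphate buffer with EDTA and Tween-20 were preincubated with compounds for 15 min. Further NADPH/GSH was added, then a 2.5 mM H2O2 aliquot initiated turnover, followed kinetically by NADPH fluorescence.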
Numbers without * were called inactive; u = inconclusive; x = no result given; & = joins results of further samples; [ ] = remark or other dose. Potency is read from the fitted curve at half-maximal effect. Only part of the results is shown; count on the stated rates, not on these rows.

SMILES | LT uptake inh | Prx2 Sm inh
Cc1ccccc1Cn1ccc(NC(=O)CCSc2nc(-c3ccco3)cc(C(F)(F)F)n2)n1 | u | >57
COc1ccc(OC)c(S(=O)(=O)N(C)CC(=O)O)c1 | -3% | >57
NC(=O)C1CCN(C(=O)CSc2ccccn2)CC1 | -9% | >57
COc1ccccc1NC(=O)C1=C(C)NC(=O)NC1c1ccccc1F (centres undefined) | 11% | >57
O=C(Nc1nc(-c2nc3ccccc3s2)cs1)c1ccco1 | -2% | >57
CCOc1ccccc1NC(=O)c1cccc2c1C(=O)N(CCOC)C2 | -22% | >57
COCCN1Cc2c(sc(C)c2C)N(C(=O)c2ccccc2)C1 | x | >57
O=C(C1CC1)N1CCc2cc(Br)cc(S(=O)(=O)NCCCN3CCCC3)c21 | -4% | >57
Cc1cccc(OCCn2c(NC(=O)c3ccco3)nc3ccccc32)c1 | -14% | >57
CN(CC(=O)Nc1ccc(F)c(F)c1F)c1cnccn1 | u | >57
C=CCNc1nc(-c2sc(NC(C)=O)nc2C)cs1 | 5% | >57
CCOc1ccc(N2C(=O)CC(Sc3nccc(C)n3)C2=O)cc1 (centres undefined) | -11% | >57
Cc1nn(-c2ccccc2)c2[nH]c(=O)c(CNc3ccc(N4CCOCC4)cc3)cc12 | u | >57
CCN1CCN(CCC(=O)Nc2ccccc2OC)CC1 | -12% | >57
O=C(c1cccn2c(=O)c3ccc(Cl)cc3nc12)N1CCN(Cc2ccc3c(c2)OCO3)CC1 | -4% | >57
CCCCN(C)CCCNC(=O)Cn1c(=O)sc2ccccc21 | u | >57
CCc1ccc(NC(=O)c2cnc3scc(C)n3c2=O)cc1 | -20% | >57
CCOC(=O)c1cc2sc(C)cc2n1CC(=O)N1CCOCC1 | -6% | >57
Cc1ccc(O)c(NC(=O)COc2cc(C)ccc2C)c1 | 10% | >57
COc1cccc(-n2nnnc2SCC(=O)Nc2cccc(C)n2)c1 | 5% | >57
Cc1csc2ncc(C(=O)NC(C)c3ccccc3)c(=O)n12 (centres undefined) | -8% | >57
O=S(=O)(c1ccccc1C(F)(F)F)N1CCOCC1 | -4% | >57
CCC1CCCCN1C(=O)C1CC(c2cc(Cl)c(OC)cc2OC)=NO1 (centres undefined) | x | >57
C=CCc1cccc2cc(C(=O)NC)c(=O)oc12 | 4% | >57
NCC1CCC(C(=O)O)CC1 (centres undefined) | 5%[3.58 µM] | >57
Nc1c(C(=O)N2CCCCC2)sc(=S)n1-c1ccccc1 | -11% | >57
O=C(Nc1cccc(F)c1)NC1CC2CCCC(C1)N2C1CC1 (centres undefined) | -13% | >57
Cc1cc2n(c1)CCn1c(C)ccc1-2 | -1% | x
COc1ccccc1N1CCN(C[C@@H](O)COc2cccc3ccccc23)CC1 | u | >57&>57&>57
Cc1cccc(C2CC(c3ccccc3)Nc3ncnn32)c1 (centres undefined) | -1% | >57
CC(=O)C1C(c2cccc(Oc3ccccc3)c2)NC(=O)NC1(O)C(F)(F)F (centres undefined) | 3% | >57
O=C(Cn1nnc(-c2ccccc2NC(=O)C2CC2)n1)NC1CCCCC1 | -3% | >57
CCC(C(=O)Nc1cc(C)nn1-c1nc(C)cc(C)n1)c1ccccc1 (centres undefined) | -1% | >57
CCC(=O)NCCCOc1ccccc1 | -1% | >57
O=C(OCCN=C1NS(=O)(=O)c2ccccc21)c1cccnc1 | 2% | >57
COc1ccccc1Nc1nc(N)nc(CSc2nccc(C)n2)n1 | -5% | >57
Cc1nc(C(C)(C)O)n(-c2ccccc2)n1 | u | >57
COc1ccccc1NS(=O)(=O)c1ccc(Cl)cc1 | -22% | x
CCOC(=O)c1nc2ccccc2s1 | -7% | >57
COC(=O)[C@@]1(Cc2ccccc2)C=C[C@@H](C)N1C(C)=O | -14% | x
CCOC(=O)N1CCN(C(=O)CN2C(=O)COc3ccc(C(C)(C)C)cc32)CC1 | -20% | >57
CCOC(=O)c1sc2ncn(C(CC)C(=O)OC)c(=O)c2c1C (centres undefined) | 1% | >57
CCCn1nnc(NC(=O)c2ccc(Br)cc2)n1 | 26% | >57
O=C(O)[C@@H](O)[C@@H](O)[C@@H]1[O][Sb][O][C@@H]1CO | -4%[8 µM] | 0.86*
CC(=O)N1CCN(c2ccccc2NC(=O)COc2cc(C)ccc2C(C)C)CC1 | u | >57
c1ccc(-c2ccc(-c3nc(-c4ccccn4)no3)cc2)cc1 | 3.2µM* | x
Cc1ccc(NC(=O)C2CCCNC2=O)nc1 (centres undefined) | 19% | >57
COc1cc(C(=O)OC(C)CN2CCOCC2)cc(OC)c1OC (centres undefined) | -5% | >57
Cc1ccc(-c2ccc(CCC(=O)O)n2C(C)C)cc1 | 11% | x
OC(COc1ccc(Cl)cc1)CN1CCCCC1 (centres undefined) | -17% | >57
CO[C@@H]1/C=C\O[C@]2(C)Oc3c(C)c(O)c4c(O)c(c(/C=N\N5CCN(C)CC5)c(O)c4c3C2=O)NC(=O)/C(C)=C\C=C/[C@H](C)[C@H](O)[C@H](C)[C@H](O)[C@H](C)[C@H](OC(C)=O)[C@@H]1C | -9% | >57
O=C(CNS(=O)(=O)c1cccs1)N1CCCC1 | -7% | >57
COc1ccccc1CNc1nc2nc(C)c(C)c(=O)n2[nH]1 | -8% | >57
CN(C)c1ccc(NC(=O)CN2C(=O)CN=C(c3ccccc3)c3ccccc32)cc1 | 4% | >57
COc1ccc(CC(CC(=O)O)C(=O)Nc2ccc(OC)cc2)cc1 (centres undefined) | 0% | >57
Cn1c(CNc2cccc(Cl)c2)nnc1SCC(=O)OC1CCCCC1 | 7% | >57
COc1ccc(NC(=O)c2cc3n(n2)C(C(F)(F)F)CC(c2ccc4c(c2)OCO4)N3)cc1OC (centres undefined) | -25% | >57
O=C1NC(c2ccco2)Nc2sc3c(c21)CCN(Cc1ccccc1)C3 (centres undefined) | u | x
Cc1cccc(N(C(=O)Cn2nnc3ccccc32)C(C(=O)NCc2ccco2)c2ccncc2)c1C (centres undefined) | -2% | >57
CC(=O)N[C@H]1[C@@H](O[C@@H](C)C(=O)O)[C@H](O)[C@H](CO)O[C@@H]1O | 3%[3.58 µM] | >57

(more compounds)
SMILES | LT uptake inh | Prx2 Sm inh
Cc1c(NC(=O)COC(=O)Cc2ccc(Cl)cc2)c(=O)n(-c2ccccc2)n1C | -4% | >57
O=C(O)CCC(=O)OC1CC2CCC1C2 (centres undefined) | 0% | >57
O=C(COc1ccccc1Cl)NCc1ccco1 | -5% | >57
COC(=O)c1ccc(C(NC(=O)OCc2ccccc2)/C(F)=C/[C@@H](C)C(=O)N(C)Cc2cccnc2)cc1 (some centres undefined) | 7% | x
CC(C)C[C@@H](CC(=O)N[C@@H](CCC(=O)O)CC(=O)O)NC(=O)[C@@H]1CCCC[C@H]1NC(=O)C[C@@H](NC(=O)C[C@H](CO)NC(=O)[C@@H]1CNCC[C@H]1N)C(C)C | u | >57
C[C@H]1C=C2C=C[C@H](C)[C@H](CC[C@@H]3C[C@@H](O)CC(=O)O3)[C@H]2[C@@H](OC(=O)[C@@H](C)CCO)C1 | -13% | >57
CCC(=O)NCc1nc2ccccc2n1Cc1ccccc1F | -14% | x
Cc1ccc(-c2nc3ncccn3c2Nc2ccc3c(c2)OCO3)o1 | -2% | >57
COc1cccc(C2CC(c3ccc(Cl)cc3)n3nc(N)nc3N2)c1 (centres undefined) | -4% | >57
CCc1nnc(NC(=O)CSc2nnc(CSc3nc(C)cc(C)n3)n2C)s1 | 3% | >57
COc1cc(-c2nc(-c3ccc(Br)o3)no2)cc(OC)c1OC | -24% | >57
COC(=O)c1sccc1NC(=O)c1cccnc1 | -8% | >57
Cc1cc(NS(=O)(=O)c2ccc(-c3ccccc3)cc2)no1 | -20% | >57
CCOC(=O)c1cc2sccc2n1CC(=O)Nc1ccc(OC)cc1OC | -3% | >57
CCCn1c(C)nc2c(NCCCCN(CC)CC)nc(C)nc21 | -12% | x

Looked up by structure from above, 2 records:
SMILES | LT uptake inh | Prx2 Sm inh
COC(=O)c1sccc1NC(=O)c1cccnc1 | -8% | >57
Cc1c(NC(=O)COC(=O)Cc2ccc(Cl)cc2)c(=O)n(-c2ccccc2)n1C | -4% | >57

Additional records follow:
SMILES | LT uptake inh | Prx2 Sm inh
N#Cc1c(N)oc(-c2cccs2)c1-c1cccs1 | 2% | >57
CC(=O)Nc1ccc2nc(-c3cccs3)[nH]c2c1 | 9% | >57
CC(C)C(OC(=O)c1cc2occc2n1C)C(=O)NCc1ccc2c(c1)OCO2 (centres undefined) | u | >57
O=C(CSc1nc2c(c(=O)n1-c1ccc(Br)cc1)SCC2)NCC1CCCO1 (centres undefined) | u | >57
Cc1ccc(NC(=O)C2CCN(S(=O)(=O)c3cccc4cccnc34)CC2)nc1 | -12% | >57
O=C(c1cnc(N2CCN(c3ncccn3)CC2)c2ccccc12)N1CCN(c2ncccn2)CC1 | -9% | >57
Cc1ccc(-n2nc(C)c3c2NC(=O)CSC3c2ccc3c(c2)OCO3)cc1 (centres undefined) | -3% | >57
Cc1ccc(S(=O)(=O)NCCC(=O)N2CCN(Cc3ccccc3)CC2)cc1 | 0% | >57
O=C(C1CCCN1S(=O)(=O)c1cccc2cccnc12)N1CCN(c2ccccc2)CC1 (centres undefined) | 1% | >57
COc1ccc(-c2nc3nc(C)c(Cc4ccccc4)c(=O)n3[nH]2)cc1 | x | >57
COC(=O)NC(/C(C(=O)OC)=C(\C)NCc1ccccc1)c1ccc2ccccc2c1 (centres undefined) | -21%[8 µM] | x
CC(=O)Nc1cccc(N(C)C)c1 | -8% | x
COC(=O)c1ccc(NC(=O)CCNS(=O)(=O)c2cccc3nonc23)cc1 | 3% | >57
c1ccc2c(c1)nc(NCCN1CCOCC1)c1nncn12 | 8% | >57
CC(=O)NC(CC(=O)NCC(c1ccco1)N(C)C)c1ccccc1 (centres undefined) | 11% | >57

By substructure: the compounds so far with bromine (4)
SMILES | LT uptake inh | Prx2 Sm inh
O=C(C1CC1)N1CCc2cc(Br)cc(S(=O)(=O)NCCCN3CCCC3)c21 | -4% | >57
CCCn1nnc(NC(=O)c2ccc(Br)cc2)n1 | 26% | >57
COc1cc(-c2nc(-c3ccc(Br)o3)no2)cc(OC)c1OC | -24% | >57
O=C(CSc1nc2c(c(=O)n1-c1ccc(Br)cc1)SCC2)NCC1CCCO1 (centres undefined) | u | >57

Later entries.
SMILES | LT uptake inh | Prx2 Sm inh
NC[C@@H](CC(=O)O)c1ccc(Cl)cc1 | 0% | >57&>57&>57
O=C(c1ccc2c(c1)OCO2)N(CC1CCCO1)C1(C(=O)NC2CCCC2)CCCCC1 (centres undefined) | -8% | >57
Cc1cccc2cc(COC(=O)COc3ccccc3)c(=O)[nH]c12 | -7% | >57
Cc1ccc(-c2[nH]nc3c2C(c2cccnc2)C(C#N)=C(N)O3)cc1 (centres undefined) | 14% | >57
CCCN1C(=O)c2cc(C(=O)NCc3ccc(OC)cc3)ccc2C1O (centres undefined) | 0% | >57
COc1cc(CN2CCC(C(=O)N3CCC(C)CC3)CC2)cc(Br)c1O | -2% | >57
COc1ccc2c3c(cccc13)NN=C2C | -6% | >57
Cc1oc(-c2ccc(Cl)cc2)nc1CN1CCCC(C(=O)NCc2ccccn2)C1 (centres undefined) | -2% | x
COc1ccc(CNc2ncnc3ccc(-c4cccnc4)cc23)c(OC)c1 | -19% | u
CCOCC(=O)N1CCN(c2ccc(F)cc2)CC1 | -15% | >57
Clc1ccc(OCc2nnc(-c3ccccc3Br)o2)c(Cl)c1 | u | >57
CCOC(=O)CSC1=C(C#N)C(c2ccc(C)s2)CC(=O)N1 (centres undefined) | u | x
CCN1CCc2c(sc(N)c2C#N)C1 | -2% | >57
Cc1ccc(CS(=O)(=O)CCC(=O)NCCCN2CCCC2=O)cc1 | 5% | >57
COc1ccccc1N1CCN(C(=O)C2CCCO2)CC1 (centres undefined) | 0% | >57

Record cards (already shown). Screens in order: LT uptake inh	Prx2 Sm inh
`COc1ccccc1N1CCN(C[C@@H](O)COc2cccc3ccccc23)CC1` is listed as u	>57&>57&>57
`CN(C)c1ccc(NC(=O)CN2C(=O)CN=C(c3ccccc3)c3ccccc32)cc1` is listed as 4%	>57
`O=C(OCCN=C1NS(=O)(=O)c2ccccc21)c1cccnc1` is listed as 2%	>57

(further entries)
SMILES | LT uptake inh | Prx2 Sm inh
Cc1c(OCC(=O)OC(C)(C)C)ccc2c3c(c(=O)oc12)CCC3 | -14% | >57
CC(C)CO/N=C1/C[C@@H](O)[C@@H](O)[C@@H]2[C@@H]3C(=O)N(c4cccc(Oc5ccccc5)c4)C(=O)[C@H]3CC[C@@H]12 | -10%[8 µM] | x
Cc1ccnc2nc(C(=O)OCCOc3cccc(Br)c3)nn12 | u | >57
O=C1[C@H]2[C@H]3[C@H](O)[C@H](O)C/C(=N/OCc4ccccc4)[C@H]3CC[C@@H]2C(=O)N1Cc1ccc2c(c1)OCO2 | 5%[8 µM] | x
CC(Oc1cccc(Cl)c1)C(=O)Nc1cc(=O)n(C)c(=O)n1C (centres undefined) | -17% | >57
